# Compound activity from PubChem.
# A1 inh – inhibitors of the anti-apoptotic protein A1, read as caspase activation; MEF A1-2A-BIM cells, Caspase-Glo 3/7 luminescence, 3 h; percent of clofoctol response, vehicle zero; caspase activation, % (concentration not given with the values); 330,000 tested, 0.066% active; AID 2462;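 active means over half of replicate activation scores above 10%, or exactly half above 10 with the replicate mean above 10; inconclusive means replicate mean below 10 yet half the replicates above 10; inactive means over half of replicates below 10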;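 further: wells of about 30 µL received 50 nL stock; many hits fall short of the cut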
# RanGTP-Impb inh – inhibitors of RanGTP-importin-beta interaction, primary screen, biochemical, FRET, CFP-Ran, YFP-importin-beta, homogeneous. cell-free CFP-Ran/YFP-importin-beta FRET ratio. inhibition, % (no concentration beside the values). 300,000 tested, 1.1% active. AID 2216;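 active means most replicates above 15%; inconclusive means exactly half above 15%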;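 further: 0% = DMSO wells and 100% = Ran loaded with GDP instead of GTP; wells of about 40 µL received 100 nL stock; the first replicate is given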
# Vif TR-FRET – inhibitors of Vif binding to APOBEC3G peptide, primary screen, biochemical, TR-FRET, GST-Vif 1-94, biotin-A3G peptide, dose response retest (AID 1117319); TR-FRET GST-Vif / biotin-A3G peptide binding; higher % means a stronger effect; test concentration not given here; strong numbers were not always called active; inhibition, %; hits with a dose series show IC50 in µM; 260,000 tested, 0.57% active;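 active means above the screen mean plus three standard deviations and confirmed in dose response; inconclusive means results disagree or hit not tested in dose response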;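 further: Vif residues 1-94 fused to GST binding biotinylated APOBEC3G peptide 110-148; 0% = full assay without inhibitor and 100% = GST in place of GST-Vif; retest series ran down from 100 µM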
# MLL AF4-AF9 inh – inhibitors of human MLL-AF4/AF9 interaction | AlphaScreen, biotin-AF4 peptide binding to FLAG-AF9 | 350,000 tested, 0.47% active | inhibition, % at 10 µM | P42568;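 active means every replicate reaching a set inhibition limit, whatever the replicate mean, cut at about 25% in these data; inconclusive means mean inhibition reaches that limit but some replicates miss it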;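 further: 0% = plate neutral control median and 100% = total signal loss; the record names both 10 and 1 µM as test concentration; the first replicate is given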
# Target sequence (P42568 whole entry, looked up): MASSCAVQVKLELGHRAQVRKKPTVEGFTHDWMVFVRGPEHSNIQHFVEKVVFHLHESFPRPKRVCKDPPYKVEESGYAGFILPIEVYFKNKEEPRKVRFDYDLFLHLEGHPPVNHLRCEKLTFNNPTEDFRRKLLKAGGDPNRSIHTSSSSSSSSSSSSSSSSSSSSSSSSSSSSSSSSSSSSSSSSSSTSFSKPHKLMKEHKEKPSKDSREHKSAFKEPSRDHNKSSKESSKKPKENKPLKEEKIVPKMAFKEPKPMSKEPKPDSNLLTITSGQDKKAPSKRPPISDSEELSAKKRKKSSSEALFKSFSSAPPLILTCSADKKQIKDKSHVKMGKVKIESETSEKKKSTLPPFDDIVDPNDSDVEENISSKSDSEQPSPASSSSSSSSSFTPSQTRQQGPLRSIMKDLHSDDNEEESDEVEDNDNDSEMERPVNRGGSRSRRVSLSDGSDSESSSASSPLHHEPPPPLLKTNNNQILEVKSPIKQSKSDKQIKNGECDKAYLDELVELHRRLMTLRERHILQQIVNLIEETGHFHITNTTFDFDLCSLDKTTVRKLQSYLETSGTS
# Beta apoptosis – beta cell apoptosis inhibition. 300,000 tested, 0.8% active. protection from apoptosis, % (concentration not given with the values). AID 435005. INS-1E cytokine-induced death, ATP luminescence, 48 h; percent of positive-control rescue, neutral wells zero;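 active means all replicates at 75% or more, or half of them and the mean; inconclusive means half reach 75% but not the mean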;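 further: 0% = cytokine-treated negative control wells and 100% = positive control rescue; higher means more ATP so stronger rescue from cytokine killing; wells of about 40 µL received 100 nL stock; the first replicate is given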
# Ecoli rRNA inh – inhibits bacterial ribosomal RNA function over humanized ribosomes | E. coli WT GFP vs humanized-ribosome RFP mutants, fluorescence, 24 h; hits give low values; DMSO median 0, no signal -100 | GFP signal change (wild-type ribosome), % (concentration not given with the values) | 350,000 tested, 1.6% active;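 active means significant combined selectivity score with lowered wild-type GFP, culture density cut under 30%, mutant RFP and density less affected; inactive means any of these conditions unmet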; further: one replicate is shown; some compounds called inactive have numbers as strong as hits
# T cruzi inh – blocks replication of Trypanosoma cruzi; T. cruzi beta-gal in NIH3T3, luminescence, 90 h; 300,000 tested, 1.4% active; inhibition, % (no concentration beside the values);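 active means mean inhibition across valid replicates above about 55%, limit read from the data; inconclusive means mean below that limit but half or more replicates reach it; inactive means mean below it, under half of replicates reach it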;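 further: signal also drops with host cell toxicity which is not excluded here; 0% = plate median of DMSO wells and 100% = zero luminescence signal; higher percent means less beta-gal luminescence so fewer parasites; stock transfer was 50 nL into about 50 µL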
# Calb FLC – affects C. albicans growth with fluconazole | 300,000 tested, 0.57% active | growth inhibition, % (test concentration not listed) | C. albicans CaCi-2 (fluconazole-resistant clinical isolate) + fluconazole, Alamar Blue growth, 48 h;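 active means most replicates above 75%; inconclusive means exactly half above 75%; inactive means most below 75%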;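 further: all wells also contain fluconazole at 8 µg/ml as a sub-toxic cotreatment; 0% = median of DMSO wells and 100% = median of geldanamycin control wells; wells of about 8 µL received 7.5 nL stock; the first replicate is given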
# Ecoli rRNA inh OD600 – recorded beside Ecoli rRNA inh, whose call it bears; OD600 change, %; measured here: OD600 growth;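 optical density of the mix in the first replicate; 0 = DMSO median and -100 = no signal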
# Ecoli rRNA inh RFP – also measured in Ecoli rRNA inh; calls as there; RFP signal change, %; measured here: RFP humanized mutant strains;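 first replicate; 0 = DMSO median and -100 = no signal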
# * hit, by the source's call; ? = inconclusive; . = no result given. These rows are one share of the data (hit frequency here may not be typical).
nr	compound	A1 inh	RanGTP-Impb inh	Vif TR-FRET	MLL AF4-AF9 inh	Beta apoptosis	Ecoli rRNA inh	Ecoli rRNA inh OD600	Ecoli rRNA inh RFP	T cruzi inh	Calb FLC
1	CCOc1ccc(S(=O)(=O)Nc2ccc(C(=O)N/N=C/c3c(C)nn(-c4ccccc4)c3N3CCCC3)cc2)cc1	0.1	?	.	3.0	.	7	5	2.1	-3	24
2	CC1(C)Cc2ccccc2-c2c1c(=O)n(Cc1ccccc1)c1nnnn21	-1.6	4.3	30%	.	17	.	.	.	16	-9
3	CCOC(=O)C1=C(C)NC(=O)NC1c1ccc(N2CCC(c3ccccc3)=N2)cc1 (stereo unspecified)	-0.5	-0.6	-98%	.	1	.	.	.	45	0
4	COC(=O)c1[nH]c(C)c(/C(O)=C2\C(=O)C(=O)N(CCN3CCOCC3)C2c2ccc(C)o2)c1C (stereo unspecified)	0.4	0.5	.	-4.3	-4	12	13	2.7	-13	11
5	CS(=O)(=O)N(Cc1ccc(C(=O)NN=C2CCCCCC2)cc1)c1ccccc1	-1.1	2.9	-2%	1.6	-6	5	8	5.6	2	1
6	COc1ccccc1N1CCN(c2cc(=O)n(-c3ccccc3Cl)c(=O)[nH]2)CC1	-5.8	?	8%	4.7	-1	-6	1	3.9	12	17
7	COc1ccc(CCN2C(=NC(=O)CCC(=O)O)SC3CS(=O)(=O)CC32)cc1OC (stereo unspecified)	-0.1	-2.3	5%	.	-13	.	.	.	-5	-4
8	CNc1c(NC(=O)COc2ccc(Cl)cc2)c(=O)oc2ccccc12	0.7	0.3	-2%	-3.3	.	-6	7	0.7	17	1
9	Cc1ccc(NCc2nnc(SCC(=O)c3ccccc3)o2)c(C)c1	-0.8	?	-4%	.	.	.	.	.	0	4
10	CCOC(=O)C1CCCN(CC(=O)c2c[nH]c3ccc(C)cc23)C1 (stereo unspecified)	2.0	5.5	6%	1.0	-8	-2	4	14	-2	10
11	CCOC(=O)c1[nH]c(COC(=O)CCOc2ccccc2OC)c(C(=O)OCC)c1C	-0.5	-3.0	-7%	.	-6	.	.	.	3	33
12	COc1ccc(NC(=O)CSc2nnc(C3CC3)n2C)cc1	-0.3	-0.7	28%	-0.3	7	11	16	-2.5	-6	16
13	COc1ccc(Cc2nnc(NC(=O)c3c(-c4ccccc4)noc3C)s2)cc1	-0.4	7.3	27%	.	-2	.	.	.	-7	-3
14	CCCCC(c1nnnn1Cc1ccco1)N1CCN(C(=O)c2ccco2)CC1 (stereo unspecified)	-0.3	1.4	-1%	.	0	.	.	.	6	-1
15	Cc1ccc(/C=N/NC(=O)NC2CCCCC2)o1	-0.3	-0.9	13%	3.9	-5	5	4	3.1	-13	-22
16	CCS(=O)(=O)c1ccc2oc(Nc3ccc(OC)c(OC)c3)nc2c1	0.0	-6.0	.	7.6	.	-9	-8	-1.5	1	0
17	Cc1ccnc(SCCn2c(N3CC(C)CC(C)C3)nc3c2c(=O)n(C)c(=O)n3C)n1 (stereo unspecified)	0.4	-3.6	0%	.	1	.	.	.	4	-16
18	N#C/C(=C\c1ccncc1)c1ccc(NC(N)=O)cc1	-0.1	0.6	0%	-2.1	-8	2	5	6.0	28	-6
19	CNc1ccc(S(=O)(=O)NCC(=O)NCCCc2ccccc2)cc1[N+](=O)[O-]	0.9	-2.2	.	1.9	0	-5	-14	1.4	13	-11
20	CCC(CC)c1nc(NCCC(=O)O)c2ccccc2n1	0.5	-1.9	4%	.	1	.	.	.	-12	-4
21	COc1ccc(CN(C)C(=O)C2CCN(S(=O)(=O)c3cccs3)CC2)cc1F	0.2	.	.	0.1	6	6	-2	0.3	.	.
22	CN(C)c1nnnn1-c1ccc(OC(F)(F)F)cc1	-0.4	-0.8	10%	-0.2	1	4	4	1.0	-8	5
23	CCC(=O)c1ccc(OCC(=O)Nc2ccc(S(=O)(=O)Nc3cc(C)nc(C)n3)cc2)cc1	-0.8	.	-4%	-1.2	-2	2	0	2.5	.	.
24	CCOc1ccc(OCC(=O)N2CCOCC2)cc1	0.5	6.6	?	.	1	.	.	.	2	-3
25	COc1ccc(CCNC(C)C(=O)Nc2ccc(S(N)(=O)=O)cc2)cc1 (stereo unspecified)	0.7	0.7	-2%	2.7	3	-2	4	4.3	-8	-6
26	COC(=O)c1ccc(C(=O)OC)c(NC(=S)N2CCN(C(=O)C3CCCO3)CC2)c1 (stereo unspecified)	-0.7	9.2	3%	-1.6	-13	3	3	0.4	2	-18
27	COc1cc(NC(=O)CN2CCN(c3ccccc3F)CC2)c(C)cc1[N+](=O)[O-]	1.0	4.7	.	-1.2	-2	21	17	-1.2	1	-6
28	O=C1NC2(CCCCCC2)C(=O)N1CCS(=O)(=O)Oc1ccccc1	0.4	0.0	-7%	3.5	-2	0	-3	0.5	-10	-9
29	O=C(CNc1cccc2ccccc12)c1ccc([N+](=O)[O-])cc1	-0.1	0.2	5%	.	0	.	.	.	1	10
30	CCOC(=O)c1ccccc1NC(=O)COC(=O)CCC(=O)c1ccccc1	0.0	-3.3	.	0.4	-10	-1	2	5.4	-11	4
31	CC(=O)Nc1ccc(S(=O)(=O)NC(CC(=O)NCCC2=CCCCC2)C(C)C)cc1 (stereo unspecified)	0.3	2.3	-1%	.	3	.	.	.	-5	10
32	Nc1cc(-c2ccco2)no1	0.4	-2.5	12%	.	-1	.	.	.	-30	-4
33	COc1ccc(CNC(=O)COC(=O)c2c(NC(C)=O)sc(C)c2C)cc1	0.3	.	.	-1.6	-3	4	7	0.0	.	.
34	COc1ccc(CNCc2c(F)cccc2F)cc1OC	0.8	-3.6	.	0.6	.	6	-3	-3.0	5	-1
35	Cn1c(N2CCOCC2)cc(=O)n(C)c1=O	0.6	-0.8	5%	-0.5	2	17	0	1.0	3	-2
36	O=C(OCC#CCSc1nnc(-c2cccc3ccccc23)o1)c1cccc2[nH]ccc12	0.4	.	.	1.2	-6	5	-4	-3.2	.	.
37	O=C(N/N=C/c1ccccc1Br)c1ccc(CSc2cccc3cccnc23)cc1	-0.7	-6.2	-5%	.	4	.	.	.	-21	3
38	Cc1cc(C)n(-c2ccc(C(=O)Nc3cc(S(=O)(=O)N(C)C)ccc3Cl)cc2)n1	-0.5	?	.	.	-2	.	.	.	2	-3
39	C[C@H](NC(=O)NCCc1ccccc1)C(=O)O	0.1	8.8	5%	-2.6	-6	.	.	.	-3	-6
40	COc1ccc(-c2nc3n(n2)C(c2cccnc2)C(C(N)=O)=C(C)N3)cc1 (stereo unspecified)	0.2	5.2	-1%	.	-2	.	.	.	-8	-15
41	COc1ccc(CCNS(=O)(=O)c2ccc(N3CCCC3=O)cc2)cc1	-0.3	-4.8	29%	.	3	.	.	.	-26	-3
42	COC(=O)c1c(C)nn(-c2ccc(F)c(Cl)c2)c1-c1cc(C)on1	0.9	2.8	-11%	-0.5	3	-3	5	-0.9	8	6
43	Cc1cc(Br)cc(C)c1OCCCCN(C)C	0.6	1.8	11%	.	-2	.	.	.	63*	-24
44	O=C(NCc1cccnc1)c1cc(S(=O)(=O)N2CCCC2)c(Cl)cc1Cl	.	7.7	.	2.4	.	-1	6	-0.7	-5	3
45	CC1=NNC(=O)/C1=C\c1cn(-c2ccccc2)nc1-c1ccc(Cl)cc1	41*	0.4	1%	-90	107*	3	12	-2.6	48	1
46	Cn1c(=O)c2c(nc(CN3CCC(C(N)=O)CC3)n2Cc2c(F)cccc2Cl)n(C)c1=O	0.8	3.4	-1%	.	-3	.	.	.	3	1
47	Cc1c(-c2cc[n+]([O-])cc2)oc2ccc(Br)cc2c1=O	-1.2	-1.9	-1%	1.0	-1	-11	-24	-19	-7	4
48	Cn1c(N)c(Sc2ccc([N+](=O)[O-])cc2)c(=O)n(C)c1=O	1.1	4.2	.	0.6	-4	-2	6	-1.1	-7	-5
49	O=C(NCc1ccccc1)c1ccc(N2CCC3(CC2)CC(c2ccccc2)=NO3)c([N+](=O)[O-])c1	0.0	1.7	.	10	14	5	-3	0.5	33	-1
50	COc1cc(NC(=O)c2cc([N+](=O)[O-])ccc2NC(=O)CNCc2ccccn2)cc(OC)c1	0.0	-3.3	.	4.7	0	-9	0	0.5	15	7
51	CCCCc1ccc(S(=O)(=O)N2CCC3(CC2)OCCO3)cc1	-0.4	2.6	.	-4.2	11	-13	-18	-2.3	4	-2

# Record cards, as listed above. Values in the order: A1 inh, RanGTP-Impb inh, Vif TR-FRET, MLL AF4-AF9 inh, Beta apoptosis, Ecoli rRNA inh, Ecoli rRNA inh OD600, Ecoli rRNA inh RFP, T cruzi inh, Calb FLC
# `COc1ccc(CNC(=O)COC(=O)c2c(NC(C)=O)sc(C)c2C)cc1` reads 0.3, ., ., -1.6, -3, 4, 7, 0.0, ., .
# `COc1cc(NC(=O)CN2CCN(c3ccccc3F)CC2)c(C)cc1[N+](=O)[O-]` reads 1.0, 4.7, ., -1.2, -2, 21, 17, -1.2, 1, -6

# Molecules above that have a Cl atom:
nr	compound	A1 inh	RanGTP-Impb inh	Vif TR-FRET	MLL AF4-AF9 inh	Beta apoptosis	Ecoli rRNA inh	Ecoli rRNA inh OD600	Ecoli rRNA inh RFP	T cruzi inh	Calb FLC
6	COc1ccccc1N1CCN(c2cc(=O)n(-c3ccccc3Cl)c(=O)[nH]2)CC1	-5.8	?	8%	4.7	-1	-6	1	3.9	12	17
8	CNc1c(NC(=O)COc2ccc(Cl)cc2)c(=O)oc2ccccc12	0.7	0.3	-2%	-3.3	.	-6	7	0.7	17	1
38	Cc1cc(C)n(-c2ccc(C(=O)Nc3cc(S(=O)(=O)N(C)C)ccc3Cl)cc2)n1	-0.5	?	.	.	-2	.	.	.	2	-3
42	COC(=O)c1c(C)nn(-c2ccc(F)c(Cl)c2)c1-c1cc(C)on1	0.9	2.8	-11%	-0.5	3	-3	5	-0.9	8	6
44	O=C(NCc1cccnc1)c1cc(S(=O)(=O)N2CCCC2)c(Cl)cc1Cl	.	7.7	.	2.4	.	-1	6	-0.7	-5	3
45	CC1=NNC(=O)/C1=C\c1cn(-c2ccccc2)nc1-c1ccc(Cl)cc1	41*	0.4	1%	-90	107*	3	12	-2.6	48	1
46	Cn1c(=O)c2c(nc(CN3CCC(C(N)=O)CC3)n2Cc2c(F)cccc2Cl)n(C)c1=O	0.8	3.4	-1%	.	-3	.	.	.	3	1
